# NPYLR7 ag: mosquito NPYLR7 agonism; activation, % at 10 µM; AID 1259423; 270,000 compounds, 0.15% hits; HEK293T NPYLR7/Galpha15, GCaMP6s calcium fluorescence; in the data active means activation above about 40%;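 further: 0% = vehicle and 100% = reference agonist at the receptor; some compounds past the cut are filed as inactive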
# NPYLR7 ag max-min: recorded beside NPYLR7 ag, whose call it bears; activation, %; measured here: Max-Min RFU normalised activation; some inactives read as strong as hits;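 span of the calcium signal over five minutes; 0% = vehicle and 100% = native peptide agonist; compound fluorescence can raise it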
# * marks the source's active call; other numbers are inactive results; & = joins results of further samples.
SMILES,NPYLR7 ag,NPYLR7 ag max-min
Cc1ccc2c(C)cc(C)c(O)c2n1,4,2
CC1(C)CC(NS(=O)(=O)c2ccc(F)c(C(F)(F)F)c2)CC(C)(C)N1,3,4
CCOC(=O)c1ccc2c(c1)nc(SCC(=O)NCC1CCCO1)n2CCc1ccc(OC)cc1 (stereo not given),0,-4
O=C(NCc1ccccn1)Nc1cc(F)c(N2CCCC2)c(F)c1,0,-2
Cc1ccc(Oc2ccc(Cl)cc2NC(=O)c2cnc(C)cn2)cc1,-5,-6
CSc1ncc(CN2CCC(Oc3ccc(C(=O)NCc4ccccn4)cc3)CC2)cn1,0,-2
CCOc1ccc(C(c2c(O)cc(C)n(CC)c2=O)N2CCCCC2)cc1 (stereo not given),7,1
CCCCN(CC(=O)N(CCc1c[nH]c2ccccc12)Cc1ccc(N(C)C)cc1)C(=O)C(c1ccccc1)c1ccccc1,32,39
O=C(NCCN1CCn2cc(OCc3ccccc3)c(=O)cc2C1=O)c1ccc[nH]c1=O,12,0
COc1cc(CNCCCN2CCc3ccccc32)cc(Cl)c1O,7,1
Cc1cccn2c(=O)nc(SCC(=O)N3CC(C)OC(C)C3)nc12 (stereo not given),3,2
CSc1nnc(C)c(=O)n1COC(=O)COc1ccccc1C,-2,-3
NC1=NC2(CCCCC2)N=C(Nc2ccc(F)cc2F)N1,20,16
CC(C)CCn1c(=O)c2c(nc3oc(-c4ccc(F)cc4)cn32)n(C)c1=O,13,22
CCOC(=O)c1csc(CN(CCCOC)C(=O)Nc2ccccc2OCC)n1,25,28
COc1ccc(C(=O)CCC(=O)N2CCCC(Nc3cccc(F)c3)C2)cc1 (stereo not given),3,0
CCC(C)(C)NS(=O)(=O)c1cc(Br)cnc1N,4,2
CCCN(C(=O)c1ccc(Cl)cc1Cl)C(C)c1nc2ccccc2c(=O)n1-c1ccccc1CC (stereo not given),-2,4
c1ccc(-c2noc3nc(OCc4ccncc4)ccc23)cc1,11,5
COc1ccc2c(c1)CCc1cc(CCC(=O)N3CC=CC3)n(CCc3cccc(F)c3)c1-2,1,0
CCc1ccccc1NC(=O)CSc1ncc(S(=O)(=O)c2ccc(Cl)cc2)c(=O)[nH]1,-4,-9
CCOc1ccc(C(=O)NC2CC3CCC(C2)N3Cc2ccc3c(c2)OCO3)cc1 (stereo not given),2,2
CSc1ccc(C=CC(=O)c2ccc3c(c2)OCCO3)cc1,8,6
O=c1[nH]c2ccccc2n1CCCSc1cnc2ccccc2n1,16,5
O=C(CCn1c2c(c3ccccc31)CCCC2)NN=Cc1cccc(O)c1,6,0
CCCn1c(=O)c(C(=O)NCc2cccnc2)nn(-c2ccc(Cl)cc2)c1=O,8,23
O=C(NCCc1ccc(Cl)cc1)Nc1ccccc1CN1CCCC1=O,8,5
O=S1(=O)[C@@H](c2ccccc2)[C@H](CO)CN1C1CC1,4,8
CN(C)C(=O)c1cncc(N2CCC(N3CCCC(C(=O)N4CCCC4)C3)CC2)n1 (stereo not given),1,0
O=C(Cc1cc2c(cc1Cl)OCCO2)N1CC[C@H](CO)[C@H](O)C1,-1,-1
COc1ccc(N=C(N(C)C)P(=O)(N(C)C)N(C)C)cc1,-4,-10
COC(=O)Cc1c(C(=O)OC)sc(N)c1C#N,1,3
CCCCc1ccc(C(=O)N(CCCN2CCOCC2)CC(=O)N(Cc2ccccc2)Cc2ccco2)cc1,2,8
CCOc1cccc2cc(C(=O)NCc3ccco3)c(=O)oc12,-6,-12
CCCCC(CC)C(=O)NCC1COc2ccccc2O1 (stereo not given),-1,-4
C=C(C)COc1ccccc1C(=O)N1CCC(c2ccncc2)CC1,1,-1
O=C(O)c1cccc(S(=O)(=O)N2CCCSc3ccccc32)c1,6,4
CC(Nc1ccc(Cl)c(F)c1)C(=O)N(C)CC(=O)NC1CC1 (stereo not given),3,3
Cc1cccc(Cc2c(C)nc(C)nc2N2CCN(S(=O)(=O)c3ccc(Cl)cc3)CC2)c1,2,1
Cc1cc(NC(=O)Cn2cnc3c2c(=O)n(C)c(=O)n3C)no1,-6,-8
CN(C(=O)CSc1nnc(Cc2ccccc2)n1C)c1ccccc1,0,10
Cc1cc(C(=O)N(C)C(C)c2ccccc2)cc(S(N)(=O)=O)c1C (stereo not given),2,-1
CCc1nc2ccc(C(=O)NCCNC(C)=O)cn2c1N(C)C(=O)Nc1ccccc1OC,-5,-9
OCCc1ccccc1-n1ccnc1-c1cccc(F)c1F,-2,-6
COc1ccc(F)c(CN2CCCC3(CCN(c4cc(OC)ncn4)C3)C2=O)c1 (stereo not given),0,-3
CCOC(=O)c1sc(-c2cccc([N+](=O)[O-])c2)cc1NC(=O)c1cccnc1Cl,5,2
CCOC(=O)c1ccc(N=c2scc(-c3ccccc3)n2NC(=O)c2ccccc2OC(F)(F)F)cc1,-6,-11
Cc1cc(OCC2CN(C(=O)Cc3cccc(Cl)c3)CCO2)ccc1Cl (stereo not given),-3,-7
CCc1ccc(-c2cc3c(=O)n(Cc4nc(-c5ccc(OC)cc5OC)no4)ccn3n2)cc1,2,-5
COc1ccc(N(C)S(=O)(=O)C2Cc3ccccc3C2)cc1OC,3,2
Cc1oc2ccccc2c(=O)c1C(=O)c1cccs1,10,8
CN(Cc1ccccc1)c1nc2c(c(=O)[nH]c(=O)n2C)n1Cc1ccccc1F,5,-1
COc1ccc(OC)c(C2CCN(Cc3cccc4c3OCO4)C2)c1 (stereo not given),-1,-2
Cn1ccn2ncc(C(=O)N(Cc3ccc4c(c3)OCO4)C3CC3)c12,-1,-4
Cc1cc2nc(-c3cc(NC(=O)c4ccccc4Cl)ccc3O)oc2cc1C,10,6
COc1cc(OC)cc(C(=O)OCCN(C)C2=NS(=O)(=O)c3ccccc32)c1,3,1
CNc1ncc(CN(C)C(=O)C(c2cccc(C)c2)N(C)C)cn1 (stereo not given),-5,-9
COCC(=O)N1CCN(C(C(=O)NCCC(C)C)C2CCCC2)CC1 (stereo not given),-4,2
Cc1ccc(OCCSCc2nc(N)nc(Nc3ccccc3)n2)cc1,3,6
COc1ccc(C(=O)Nc2ccc3nn(-c4ccc(Cl)cc4)nc3c2)cc1[N+](=O)[O-],-6,-10

# Record cards, as listed above:
# Profile of `Cc1ccc(Oc2ccc(Cl)cc2NC(=O)c2cnc(C)cn2)cc1` → NPYLR7 ag: -5; NPYLR7 ag max-min: -6
# Profile of `CNc1ncc(CN(C)C(=O)C(c2cccc(C)c2)N(C)C)cn1` (stereo not given) → NPYLR7 ag: -5; NPYLR7 ag max-min: -9
# Profile of `CN(C(=O)CSc1nnc(Cc2ccccc2)n1C)c1ccccc1` → NPYLR7 ag: 0; NPYLR7 ag max-min: 10

# Sorted by number of heavy atoms (ascending): some entries from above.
SMILES,NPYLR7 ag,NPYLR7 ag max-min
CN(C(=O)CSc1nnc(Cc2ccccc2)n1C)c1ccccc1,0,10
Cc1ccc(OCCSCc2nc(N)nc(Nc3ccccc3)n2)cc1,3,6
Cc1cc2nc(-c3cc(NC(=O)c4ccccc4Cl)ccc3O)oc2cc1C,10,6

# Further compounds:
SMILES,NPYLR7 ag,NPYLR7 ag max-min
CCOC(=O)c1cc(C#N)c(SCc2csc(Cc3ccc(Br)c(OC)c3)n2)nc1C,5,1
CC1(C(=O)NS(C)(=O)=O)CCN1C(=O)c1ccc(C2CCCCC2)cc1 (stereo not given),2,-2
CC1(NC(=S)Nc2ccccn2)CCS(=O)(=O)C1 (stereo not given),0,0
O=C(CCn1cnc2ccccc21)NN=Cc1ccc(O)cc1,5,2
Cc1cc(Nc2ccc3c(n2)C(=O)N(CC(=O)NC(C)C)C3)n(C)n1,6,1
COc1ccccc1-c1cnc(N)nc1-c1ccc(OCc2ccc(F)cc2)cc1O,2,-3
Cc1ccc(C(NC(=O)C(=O)c2cccn2C)c2ccncc2)cc1 (stereo not given),-6,-10
C=CCN1C[C@H]2COc3cc(OC)ccc3[C@H]2N(C(=O)c2ccc(F)cc2)CCC1=O,20,21
Cc1ccn2c(=O)cc(CSc3nnnn3CCc3cccs3)nc2c1,0,-2
O=C1C(N2CCCC2c2ccc3c(c2)OCCO3)CCN1CC(F)(F)F (stereo not given),5,5
CC(C)N(Cc1ccccc1OS(C)(=O)=O)C(=O)NC(C)(C)C,11,17
O=C1C(C(c2ccc(Cl)cc2)N2CCC3(CC2)OCCO3)Sc2nc(-c3ccco3)nn21 (stereo not given),-7,-9
CN(Cc1c(F)cccc1Cl)C(=O)Nc1ccccc1I,-3,-3
Cc1ccc(NC(=O)CN2CSCC2=O)cc1OCC(F)F,12,1
c1ccc(-c2noc3nc(NCC4CCCO4)ccc23)cc1 (stereo not given),-2,-4
CCc1nc2n(n1)C(=O)C(C(c1cccc(OC)c1)N1CCN(CCO)CC1)S2 (stereo not given),-4,-6
CCc1cc(=O)[nH]c(-n2nc(C)cc2NC(=O)c2ccc3ccccc3c2)n1,7,4
CC(C)(CNC(=O)C1CC2(CCNCC2)CN1)N1CCc2ccccc2C1 (stereo not given),21,5
COc1ccccc1N1CCN(c2nc(CNC(=O)c3ccc(F)c(F)c3)nc3ccccc23)CC1,19,6
CCCN(Cc1nc2cc(Cl)ccc2c(=O)[nH]1)C(=O)NCCCCc1ccccc1,9,10
O=C(NCC1CCCN(Cc2ccsc2)C1)c1ccc(-c2ccccc2)cc1 (stereo not given),15&2,7&1
CN(NC(=O)c1cc2c(nc1Cl)CCC2)c1ccccc1,-11,-16
Cc1cc(NCCSc2nnnn2C)nc(N2CCOCC2)n1,12,-3
CCOC(=O)c1ccc2c(c1)nc(SCc1ccc(Cl)c(C(F)(F)F)c1)n2Cc1ccccn1,14,14
C(=NN1CCN(Cc2ccccc2)CC1)c1ccc(OCc2ccccc2)cc1,0,-6
CCCN(Cc1c(C)nn(-c2ccccc2)c1N1CCN(C)CC1)C(=O)NC1CCCCC1,2,11
CC(C)Oc1ccc(C(O)=C2C(=O)C(=O)N(CCCN(C)C)C2c2ccco2)cc1 (stereo not given),3,5
CCCn1c(N)c(N2CCOCC2)c(=O)n(CC(=O)Nc2ccc(C)c(F)c2)c1=O,3,5
CCn1ncc(-c2cccnc2OC)c1C(=O)OC,12,1
CS(=O)(=O)c1ccc(C(NC(=O)CCCCC2CCSS2)c2ccc3c(c2)CCO3)cc1 (stereo not given),-23,-29

# Of the compounds above, 5 have a thiophene ring, fused or not.
SMILES,NPYLR7 ag,NPYLR7 ag max-min
COC(=O)Cc1c(C(=O)OC)sc(N)c1C#N,1,3
CCOC(=O)c1sc(-c2cccc([N+](=O)[O-])c2)cc1NC(=O)c1cccnc1Cl,5,2
Cc1oc2ccccc2c(=O)c1C(=O)c1cccs1,10,8
Cc1ccn2c(=O)cc(CSc3nnnn3CCc3cccs3)nc2c1,0,-2
O=C(NCC1CCCN(Cc2ccsc2)C1)c1ccc(-c2ccccc2)cc1 (stereo not given),15&2,7&1

# Bioassay records: PubChem, Fisher Drug Discovery Resource Center

# These rows are one share of the data, so the mix of outcomes need not match the whole.
